hNpr1 antagonist = antagonists of human natriuretic peptide receptor Npr1; hit rate 1.6% among 76,000; HEK293 hNpr1 GloSensor cGMP, ANP-stimulated luminescence; AID 1347048; Potency, µM (titrated, usually from 46.3 µM), inactives show at the highest dose activity change, negative = inhibition, usual class: inhibitors; active = well fitted inhibition curve with a large enough effect; inconclusive = small, poorly fitted or top-dose-only effect; inactive = no such curve, though single readings can be large or run the other way;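 further: nearly all actives have a fitted effect of over 60% in size; nearly all hits also lower the signal before the agonist is added; a reference antagonist and vehicle were the controls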
Target sequence (P16066 whole entry, looked up): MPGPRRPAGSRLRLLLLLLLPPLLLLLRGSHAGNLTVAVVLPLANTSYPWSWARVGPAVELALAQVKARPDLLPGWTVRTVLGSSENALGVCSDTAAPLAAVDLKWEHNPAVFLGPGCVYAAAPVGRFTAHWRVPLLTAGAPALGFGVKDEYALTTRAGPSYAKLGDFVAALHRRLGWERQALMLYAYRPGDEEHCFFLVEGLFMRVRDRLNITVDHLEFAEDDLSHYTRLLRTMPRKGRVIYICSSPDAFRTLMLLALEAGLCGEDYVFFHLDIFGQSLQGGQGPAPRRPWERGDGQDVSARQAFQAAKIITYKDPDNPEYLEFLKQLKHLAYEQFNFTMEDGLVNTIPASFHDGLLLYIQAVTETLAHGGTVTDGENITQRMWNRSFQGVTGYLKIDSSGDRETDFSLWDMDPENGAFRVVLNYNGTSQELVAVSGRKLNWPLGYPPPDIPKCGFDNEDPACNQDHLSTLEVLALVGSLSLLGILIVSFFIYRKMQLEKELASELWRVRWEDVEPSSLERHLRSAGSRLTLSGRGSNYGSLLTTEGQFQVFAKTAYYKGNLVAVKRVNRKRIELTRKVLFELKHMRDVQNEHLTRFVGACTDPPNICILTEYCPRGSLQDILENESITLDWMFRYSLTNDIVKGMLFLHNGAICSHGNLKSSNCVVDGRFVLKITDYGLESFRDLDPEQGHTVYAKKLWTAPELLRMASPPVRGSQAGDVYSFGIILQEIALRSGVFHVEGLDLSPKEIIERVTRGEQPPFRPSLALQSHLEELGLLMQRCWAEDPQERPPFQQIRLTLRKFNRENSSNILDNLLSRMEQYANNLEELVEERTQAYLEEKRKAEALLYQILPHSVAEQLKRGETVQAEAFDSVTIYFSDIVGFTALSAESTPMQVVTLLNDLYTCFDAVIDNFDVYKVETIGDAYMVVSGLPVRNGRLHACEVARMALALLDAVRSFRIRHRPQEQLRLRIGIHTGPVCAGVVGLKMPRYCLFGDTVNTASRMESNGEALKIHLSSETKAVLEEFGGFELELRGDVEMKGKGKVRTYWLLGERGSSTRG
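Compound pre-incubated 30 min at room temperature on GloSensor-loaded HEK293 cells stably carrying hNpr1 and the pGS-40F cGMP biosensor. Stimulation uses hNppA at 0.1 nM final; luminescence is taken at baseline and 20 min post-agonist.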
An asterisk follows results filed as active; ? = inconclusive; [ ] = remark or other dose. On the % scale 0 is the no-effect control and ±100 the full control effect; potency means the concentration at half of the fitted maximal effect. Not all compounds are listed, so the mix of outcomes need not match the whole.

SMILES | hNpr1 antagonist
Clc1cccc(-c2cnc([C@@H]3COCCN3Cc3ccccc3)[nH]2)c1 | ?
CCn1c(CO)nnc1C1CC(NC(=O)NCCc2ccccc2F)C1 (centres undefined) | 0%
Cc1ccc(-c2cn3c(n2)CO[C@@H](CNC(=O)c2cccnc2)C3)cc1 | 5%[70.6 µM]
Cc1ccc(S(=O)(=O)NC[C@H]2O[C@@H](CC(=O)N3CCN(c4ccc(F)cc4)CC3)[C@H](O)[C@@H]2O)cc1 | -5%
Cc1noc(-c2nc(Cc3cccc(F)c3)no2)n1 | 11%
Cc1nc(-c2c3n(c(=O)n(Cc4cccc(F)c4)c2=O)CCCCC3)no1 | -4%
O=C(c1ccc(F)cc1)N1CCC(Cc2nc(-c3ccccc3)no2)CC1 | 5µM*
O=C1CCCCC(CNC(=O)c2ccoc2)N1 (centres undefined) | -2%
O=C(C1CCc2ncc(-c3ccsc3)n2C1)N1CCC(Cc2ccccc2)CC1 (centres undefined) | 4%
O=C(NCc1ccc(Cl)nc1)c1ccc2ccnn2c1 | 0%[70.6 µM]
CCCCN(C)C(=O)c1cc(-c2ccc(C)cc2)cn1CC | -20%
Cc1cc(S(=O)(=O)N2C[C@@H](F)C[C@H]2C(=O)N2CCc3ccccc3C2)ccc1Cl | 4%
CCC[C@H]1CN(C(=O)c2ccccc2Cc2ccc(C)cc2)C[C@@H]1N | -30%
CCOc1ccc(C2NC(=O)N(CC)C3=C2C(=O)OC3)cc1 (centres undefined) | 5%
COC(=O)c1ccc(NC(=O)N2CCC(CCOc3ccc(F)cc3)C2)cc1 (centres undefined) | ?
Cn1cc(-c2ccccc2F)c2nc(COc3ccc(C(=O)O)cc3)cn2c1=O | -3%[70.6 µM]
CN1CC(c2nc(C3CCOCC3)nn2CC(=O)O)CC1=O (centres undefined) | -1%
Cc1ccc(C(=O)NC(C(=O)N2CCCCC2)C2CCN(C(=O)C3CCCC3)CC2)cc1 (centres undefined) | 0%
CCn1cc(CN2CCc3nn(CCOC)c(=O)n3CC2)cn1 | 1%
CC(=O)Nc1cccc(C(=O)N2CCC(c3n[nH]c(=O)n3-c3ccccc3)CC2)c1 | 7%
CC1(COc2ccc3[nH]ccc3c2)COc2ccc(C(=O)NCC3CCOCC3)cc2N1 (centres undefined) | -4%[70.6 µM]
CCC1CN(C(=O)c2ccc(-c3ccsc3)nc2)CCN1C(C)C (centres undefined) | 2%
CSCC(=O)N[C@H]1CCN2C(=O)c3cc(/C=C/c4ccccc4)ccc3NC(=O)[C@H]12 | 2%[70.6 µM]
COC[C@@H]1[C@H](NC(=O)c2nc(-c3ccccc3)[nH]c2C)[C@@H]2CCO[C@H]12 | 2%
CC(=O)N1CCc2nn(CC(=O)Nc3ccccc3C)c(=O)cc2C1 | -4%

Filtered by structure, those above with a Cl atom (3)
SMILES | hNpr1 antagonist
Clc1cccc(-c2cnc([C@@H]3COCCN3Cc3ccccc3)[nH]2)c1 | ?
O=C(NCc1ccc(Cl)nc1)c1ccc2ccnn2c1 | 0%[70.6 µM]
Cc1cc(S(=O)(=O)N2C[C@@H](F)C[C@H]2C(=O)N2CCc3ccccc3C2)ccc1Cl | 4%

Other structures
SMILES | hNpr1 antagonist
COc1ccc(C(=O)N2CC[C@H](c3nc4ccccc4n3C)C2)cc1OC | 1%[70.6 µM]
COc1ccc(Nc2ncc(-c3cnn(C)c3)c3c2OCC3)cc1 | 6%[70.6 µM]
COc1cc(-c2ccnc(-c3nnc(C)n3Cc3ccccc3)c2)ccn1 | 2%[70.6 µM]
Cc1noc(C)c1CC(=O)N(C)C1CCc2nnc(C)n2CC1 (centres undefined) | 6%
COc1ccc(-c2ccc(COc3ccc4c(cnn4CCC(=O)O)c3)cc2)c(C)c1 | -9%[70.6 µM]
O=C(CCC[C@H]1NC[C@@H]2CC1CN(Cc1ccccc1)C2)N1CCOCC1 | 2%
CN(C)c1ccc(CN[C@H]2[C@H](O)[C@@H](N(C)CCc3ccccn3)[C@@H]3OC[C@H]2O3)cc1 | -1%[70.6 µM]
C=CCC1(OC)CCN(C(=O)c2cnn3cc(CN(CC)CC)cnc23)CC1 | 3%
O=C(Cn1nc2c(cc1=O)CCCC2)Nc1ccc(N2CCCS2(=O)=O)cc1 | 3%
Cc1noc(C)c1-c1cc2cc(CO)oc2c(-c2ccc([S+](C)(=O)[O-])cc2)n1 | 0%[70.6 µM]
CC(=O)Nc1ccc(OCC(=O)N2CCC(C)CC2)nc1 | 7%
O=C1COc2ccc(N3CCCC3)nc2CN1Cc1ccccc1 | -20%[70.6 µM]
Cc1nn(CC(=O)NC2CCCCC2)c(=O)c2nc(C(C)C)sc12 | -4%
Cc1ccc(CN(C)C2CCc3nn(C)c(=O)n3CC2)o1 (centres undefined) | 2%
COc1ccc(CNC(=O)c2c(C)noc2-c2ccc(OC)cc2)cc1 | -13%
COc1ccc(CCC(=O)NCCc2ncc(C)n2C2CCC2)cc1 | 6%
COc1ccc(-c2noc(-c3nc(C)no3)n2)cc1 | 4%
CCN1C[C@@H]2C(C(=O)Nc3cccc(Cl)c3)=NO[C@@H]2C1 | 0%[70.6 µM]
CN(c1cc(=O)c2ccnc(-c3ccccc3Oc3ccccc3)c2o1)C1CCOCC1 | -4%[70.6 µM]
COC(=O)[C@H](NC(=O)[C@@H]1[C@@H](NC(=O)Nc2ccc(F)cc2F)CCN1C(=O)c1cnccn1)C(C)C | 1%
Cc1ccc(-n2cc(CN3CCn4nc(C(O)c5nccn5C)cc4C3)cn2)cc1 (centres undefined) | 6%
CNC(=O)c1onc(-c2ccc(OC)cc2)c1[C@H](C)O | 0%[70.6 µM]
CC1CCc2nn3ccn(CC(=O)Nc4ccccc4)c(=O)c3c2C1 (centres undefined) | -4%
CNC(=O)[C@@H]1CN(C(=O)Cn2c(=O)oc3ccccc32)C[C@H]1c1nc(C)no1 | 11%
O=S(=O)(c1ccc2c(c1)CCC2)N1CCCCC1c1nc(CCOCC2CC2)no1 (centres undefined) | -12%

Some of the entries so far, in markdown:
| smiles | hNpr1 antagonist |
| --- | --- |
| CN(C)c1ccc(CN[C@H]2[C@H](O)[C@@H](N(C)CCc3ccccn3)[C@@H]3OC[C@H]2O3)cc1 | -1%[70.6 µM] |
| COc1cc(-c2ccnc(-c3nnc(C)n3Cc3ccccc3)c2)ccn1 | 2%[70.6 µM] |
| CC1CCc2nn3ccn(CC(=O)Nc4ccccc4)c(=O)c3c2C1 (centres undefined) | -4% |
| COC(=O)[C@H](NC(=O)[C@@H]1[C@@H](NC(=O)Nc2ccc(F)cc2F)CCN1C(=O)c1cnccn1)C(C)C | 1% |

Continued.
SMILES | hNpr1 antagonist
CCCc1ccc2oc(C(=O)NCCc3nncn3CC)c(C)c2c1 | -16%
Cc1ccc(C(=O)N2CCN(c3nnc4c(Cl)cccn34)CC2)cc1F | -1%
COCCCn1c(C)cnc1C1CCN(C(=O)Nc2ccc3c(c2)OCCO3)C1 (centres undefined) | 2%
CCOc1ccccc1C(=O)N1CCN(c2cc(C(F)(F)F)nc(C)n2)CC1 | 4%
CSc1ccc(CNC(=O)c2cc3c(=O)[nH]c(C)cn3n2)cc1 | 9%
OC[C@@H]1CNC[C@H]1C1CCN(C2CCOCC2)CC1 | 14%
C=CCNC(=O)N1CCOC(CN(CC(C)C)C(=O)c2ccccc2)C1 (centres undefined) | 0%
Cc1ccc(C2(C(=O)N3CCN(Cc4ccccc4)CC(O)C3)CC2)cc1 (centres undefined) | -3%
COc1cccc(-c2cc(C(=O)NCCn3nc(C)c(Cl)c3C)[nH]n2)c1 | -2%
CCC(CC)NC(=O)C1Cn2cccc2C(=O)N1Cc1ccccc1 (centres undefined) | 4%
NS(=O)(=O)c1ccc(C(=O)N2CCCC(c3ccn[nH]3)C2)cc1 (centres undefined) | -2%
Cc1ccc(C(=O)NCC(=O)N2CCN(c3ccccn3)CC2)cc1 | -4%
CC(C)(CC(=O)O)CC(=O)N1Cc2[nH]cnc2C[C@H]1C(=O)NC1CCCCC1 | 3%[70.6 µM]
Cc1cn2nc(C(=O)N3CCC(C(=O)NC4CCCCC4)CC3)cc2c(=O)[nH]1 | 16%
COCCNC(=O)CCCN1C(=O)COc2ccc(C(=O)COc3cc(C)ccc3F)cc21 | -15%
CN(CC(=O)N[C@H]1CCOC[C@H]1C1CCOCC1)Cc1ccccc1F | 5%
COc1ccc(NC(=O)N2Cc3[nH]cnc3C[C@H]2c2nc(-c3ccc(OC)cc3)no2)cc1 | -29%
Cc1ccc(C(=O)N2CCC(N3C(=O)C(O)C34CCCCC4)CC2)s1 (centres undefined) | 1%
Cc1cc(C(=O)N2CCC(Cc3nc(-c4ccccc4)n[nH]3)CC2)nn1C | -4%
CN(CC1CCCO1)C(=O)c1coc(COc2cccc(C(F)(F)F)c2)n1 (centres undefined) | 3%
CN(C)Cc1cc(C[C@@H]2C[C@H](NCc3ccc(F)cc3)C2(C)C)no1 | 6%[70.6 µM]
CCCN1CCN(C(=O)CC2CCCN(c3cnn(CCOC)c(=O)c3)C2)CC1 (centres undefined) | -21%
COc1cccc(N2CC(C(=O)N3CCC(C#N)CC3)NC2=O)c1 (centres undefined) | -8%[70.6 µM]
CNC(=O)CCc1ccnc(N2CCCC2)c1 | -15%
CCc1ccc(NC(=O)COc2cccc(-c3nnc4n3CCCC4)c2)cc1 | -4%

Quoted from the listing.
CSc1ccc(CNC(=O)c2cc3c(=O)[nH]c(C)cn3n2)cc1 in hNpr1 antagonist: 9%
C=CCNC(=O)N1CCOC(CN(CC(C)C)C(=O)c2ccccc2)C1 (centres undefined) in hNpr1 antagonist: 0%
COCCNC(=O)CCCN1C(=O)COc2ccc(C(=O)COc3cc(C)ccc3F)cc21 in hNpr1 antagonist: -15%

The listing continues.
SMILES | hNpr1 antagonist
Cc1ccccc1NC(=O)N1CCCC(Cn2cnc3cccnc32)C1 (centres undefined) | -3%
CCC1c2nccn2CCCN1C(=O)c1ocnc1C (centres undefined) | 0%
COc1ccc(CNC(=O)C2(c3ccc(NC(C)=O)cc3)CCCCC2)cc1OC | -2%
CCOc1ccccc1CN1C[C@@H](CO)[C@H](NC(C)=O)C1 | 2%
Fc1ccc(CCC2CCCN(C3CCN(Cc4cccnc4)CC3)C2)cc1 (centres undefined) | 1%
COc1cccc(-c2nnnn2[C@H]2CO[C@H]3[C@@H]2OC[C@@H]3NC(=O)c2ccccc2)c1 | ?
O=C(N[C@@H]1CN(C(=O)c2ccccn2)CC[C@@H]1CO)C1CC1 | 12%
COc1ccc(Cl)cc1C(=O)N1CCC[C@H]1c1nc(-c2ccc(C)cc2)no1 | -12%
COCC(=O)N1CCC2(CC1)OC(=O)N(Cc1cccnc1)C2(C)c1ccccc1 (centres undefined) | -2%[70.6 µM]
CCOc1ccccc1C1NC(=O)N(CC(=O)Nc2cc(C)ccc2OC)C2=C1C(=O)OC2 (centres undefined) | -3%
CCCCN(C)C(=O)Cn1ccn2nc(-c3ccc(F)cc3)c(CO)c2c1=O | -4%
COCC(=O)N1CCN(C(=O)c2ccc(N(C)C)cc2)C[C@H]1C(=O)N[C@@H](CC1CCCCC1)C(N)=O | -2%
Cn1nc(C(=O)N2CCOCCNC(=O)CC2)c2ccccc21 | 2%
O=C(Nc1ccc2ncnc(N3CCCCC3)c2c1)c1cc(F)cc(F)c1 | ?
CCNC(=O)Nc1ccc2c(c1)CN(Cc1ccccc1OC)C(=O)C(C)O2 (centres undefined) | -10%
Cc1nn2c(c1-c1cccnc1N1CCOCC1)N(CCCc1ccccc1)CCC2 | ?
O=C(Cc1ccsc1)N1CCCCCC1c1nnc(-c2ccccc2)o1 (centres undefined) | 4%
Cc1cc(F)ccc1C(=O)N1CCn2nc(Cc3ccccc3)cc2C1 | -2%
CC(C)N1C[C@H](O)C[C@H]1c1nnc2n1CCN(C(=O)c1nccn1C)CC2 | -2%
C[C@@]1(O)CCN(C(=O)CCCS(N)(=O)=O)C[C@@H]1Cc1ccccc1 | 3%
Cc1nc(-c2c3n(c(=O)n(CC(=O)Nc4ccc(F)cc4)c2=O)CCCC3)no1 | 0%
COc1ccc(CCNC(=O)c2noc(-c3ccc[nH]c3=O)n2)cc1OC | -6%
Cn1nccc1CN1CCC2(Cc3ccccc3NC2=O)C1 (centres undefined) | 11%[70.6 µM]
CC(C(=O)Nc1nccs1)N1CCN(c2nccnc2C#N)CC1 (centres undefined) | 7%
O=C(Cn1ccnc1)N1CCC(N2C(=O)C3(CCCC3)C2c2ccccc2)CC1 (centres undefined) | 11%

Printed as active in hNpr1 antagonist, among the entries above:
SMILES | hNpr1 antagonist
O=C(c1ccc(F)cc1)N1CCC(Cc2nc(-c3ccccc3)no2)CC1 | 5µM*

(list continues)
SMILES | hNpr1 antagonist
CC(C)C1=NOC2(CCN(Cc3ccc(F)cc3)CC2)C1 | 0%[70.6 µM]
COCC1CCCN1S(=O)(=O)c1ccc2c(c1)CN(C(=O)COC(C)C)CC2 (centres undefined) | -1%
Cc1ccc(N2CCN(C(=O)C[C@H]3NC(=O)c4ccccc4NC3=O)CC2)c(C)c1 | -25%
COC(=O)[C@@H]1Cc2ncn(C(C)C)c2CN1S(=O)(=O)c1ccc(C#N)cc1 | -1%[70.6 µM]
O=C(NCCCc1ccccc1)c1ccc(CN2C(=O)NC3(CCOCC3)C2=O)cc1 | ?
NC(=O)CN1CC2(CCC1=O)CCN(C[C@@H](O)CO)CC2 | 6%
OC(c1nc(Nc2ccc(Oc3ccccc3)cc2)n[nH]1)C1CC1 (centres undefined) | -22%[70.6 µM]
CC(=O)N1CCC[C@H]1C(=O)N1CCc2nc(C)nc(NC3CC3)c2CC1 | 0%
Cc1ccccc1S(=O)(=O)N1C[C@@H]2CCCN3CCC[C@@H]([C@H]23)[C@H]1CCCC(=O)N1CCOCC1 | 0%
COCCNC(=O)[C@H]1C[C@H](Oc2cccnc2)CN1C(=O)Cc1ccccc1 | -21%

Compound activity from PubChem.
